# High-throughput results: PubChem BioAssay, Broad Institute
# Vaccinia stage = Vaccinia orthopox stage-specific inhibition. Vaccinia-infected cells, mCherry/Venus stage reporter fluorescence; stronger effect = lower value; some inactives read as strong as hits. activity change (mCherry), % (concentration not given with the values). 89,000 compounds, 0.01% hits. AID 1053133;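 active means mCherry past -33% and 40 or more points under the early reporter, replicates agreeing; inconclusive means past -33% without that gap or agreement; tested in A549 cells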;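 further: scaled between vehicle wells and reference inhibitor wells; 23 nL library stock went into each well; one replicate is shown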
# Vaccinia stage Venus = recorded beside Vaccinia stage, whose call it bears; activity change (Venus), %; measured here: Venus reporter, other viral stage;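 negative = less Venus signal; first of two replicates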
# The depositor's hits bear a star; ? = inconclusive; / = no result given. These rows are one share of the data; rates above refer to the full screens.
SMILES,Vaccinia stage,Vaccinia stage Venus
C[C@H]1CN([C@@H](C)CO)C(=O)CCCn2nncc2CO[C@H]1CN(C)C(=O)Nc1ccc(N2CCCCC2)cc1,10,10
C[C@H](CO)N1C[C@H](C)[C@H](CN(C)Cc2ccc3c(c2)OCO3)Oc2ccc(NC(=O)CCC(F)(F)F)cc2CC1=O,-8,0
O=C(C[C@H]1CC[C@@H]2NC[C@@H](O)COC[C@H]2O1)NCc1ccc(Oc2ccccc2)cc1,9,0
O=C(Nc1ccc2c(c1)[C@@H]1C[C@H](CC(=O)N3CCCCC3)O[C@H](CO)[C@@H]1O2)C1CCOCC1,4,13
C[C@@H]1CCCCO[C@H](CN(C)S(=O)(=O)c2cn(C)cn2)[C@@H](C)CN([C@@H](C)CO)C(=O)c2cc(NC(=O)c3ccccc3)ccc2O1,8,9
C[C@H](NC(=O)C[C@@H]1CC[C@@H](NC(=O)Cc2ccccn2)[C@H](CO)O1)c1ccccc1,14,7
C[C@H](CO)N1C[C@H](C)[C@H](CN(C)Cc2ccc(Cl)c(Cl)c2)Oc2ccc(NC(=O)CCN3CCOCC3)cc2C1=O,-5,-13
C[C@H]1CN([C@@H](C)CO)C(=O)c2cc(C#CC3(O)CCCC3)cnc2O[C@H]1CN(C)C(=O)C1CCOCC1,26,14
O=C(Nc1cccc(Cl)c1)N1C[C@H]2[C@@H](c3ccccc31)[C@H](CO)N2Cc1ccccc1Cl,-25,-20
OC[C@@H]1[C@H](c2ccc(-c3ccc(F)cc3)cc2)[C@@H]2CN(Cc3ccccn3)CCCCN12,-7,0
C[C@H]1CN([C@@H](C)CO)C(=O)c2cc(NS(=O)(=O)c3ccccc3)ccc2O[C@@H]1CN(C)CC1CCCCC1,3,2
Cc1noc(C)c1NC(=O)Nc1ccc2c(c1)C(=O)N([C@H](C)CO)C[C@H](C)[C@@H](CN(C)C(=O)Nc1c(C)noc1C)OCCCC[C@@H](C)O2,26,17
CC(C)NC(=O)N(C)C[C@@H]1OCCCC[C@@H](C)Oc2ccc(NC(=O)CCCN(C)C)cc2C(=O)N([C@H](C)CO)C[C@H]1C,22,14
C[C@H](NC(=O)C[C@@H]1C[C@@H]2c3cc(NC(=O)c4cccnc4)ccc3O[C@@H]2[C@H](CO)O1)c1ccccc1,4,4
C[C@@H]1CN([C@H](C)CO)C(=O)Cc2cc(NS(=O)(=O)c3cccs3)ccc2O[C@H]1CN(C)S(=O)(=O)c1ccccc1,5,5
C[C@@H]1CN([C@@H](C)CO)C(=O)c2cc(NS(=O)(=O)c3ccc(Cl)cc3)ccc2O[C@@H](C)CCCCO[C@@H]1CN(C)Cc1ccc2c(c1)OCO2,?,/
CC(C)C#Cc1cnc2c(c1)C(=O)N([C@H](C)CO)C[C@H](C)[C@H](CN(C)C(=O)c1ccccc1F)O2,3,2
COc1ccccc1CNC(=O)C[C@H]1CC[C@H]2[C@@H](COC[C@@H](O)CN2C(=O)Nc2ccc(F)cc2)O1,-8,-10
O=C(NCC1CC1)[C@H]1[C@H](CO)[C@H]2Cn3c(ccc(C4=CCCC4)c3=O)[C@@H]1N2C(=O)C1CC1,12,11
O=C(C[C@H]1CC[C@H](NC(=O)c2ccc3c(c2)OCO3)[C@H](CO)O1)NCc1ccc(Oc2ccccc2)cc1,?,/
CO[C@@H]1CN(C)C(=O)c2ccc(NC(=O)c3ccccc3F)cc2OC[C@H](C)N(CC2CCOCC2)C[C@@H]1C,2,4
Cc1noc(C)c1NC(=O)N(C)C[C@@H]1Oc2c(NS(=O)(=O)c3cn(C)cn3)cccc2C(=O)N([C@@H](C)CO)C[C@@H]1C,12,6
CCCNC(=O)N1CC(=O)N2[C@@H](CO)[C@H](c3ccc(-c4ccc(C)cc4)cc3)[C@@H]2C1,-10,-2
O=C(N[C@@H]1CC[C@H](CCNS(=O)(=O)c2ccc(F)cc2)O[C@@H]1CO)c1cccc(F)c1,-2,-5
CCCNC(=O)C[C@@H]1C[C@@H]2c3cc(NC(=O)C4CCC4)ccc3O[C@@H]2[C@H](CO)O1,26,20
# The list goes on:
SMILES,Vaccinia stage,Vaccinia stage Venus
CC(=O)N1[C@H](CO)[C@H](c2ccccc2)C12CN(C(=O)CN1CCOCC1)C2,2,3
C[C@H](CO)N1C[C@H](C)[C@@H](CN(C)Cc2ccc(C(F)(F)F)cc2)Oc2c(NC(=O)Nc3ccc(C(F)(F)F)cc3)cccc2C1=O,-17,-7
CC(C)NC(=O)N(C)C[C@@H]1Oc2cc(C#C[C@@H](C)O)ccc2S(=O)(=O)N([C@H](C)CO)C[C@@H]1C,40,13
O=C(N[C@H]1CC[C@H](CCNC(=O)C2CCOCC2)O[C@@H]1CO)c1ccncc1,-7,1
COc1ccc(NC(=O)N(C)C[C@@H]2Oc3ncc(Br)cc3C(=O)N([C@@H](C)CO)C[C@@H]2C)cc1,8,2
C[C@H]1CN([C@@H](C)CO)C(=O)Cc2cc(NC(=O)Nc3ccc(C(F)(F)F)cc3)ccc2O[C@@H]1CN(C)C(=O)Nc1ccccc1,9,7
Cc1ccccc1S(=O)(=O)NCC[C@@H]1CC[C@@H](NC(=O)C2CCCC2)[C@@H](CO)O1,-16,10
C[C@H](CO)N1C[C@H](C)[C@@H](CN(C)C(=O)C2CCC2)Oc2cc(C#CC(C)(C)O)ccc2S1(=O)=O,10,-1
O=C(NCC1CC1)[C@@H]1[C@@H](CO)[C@@H]2Cn3c(cccc3=O)[C@@H]2N1Cc1cccc(F)c1,12,13
O=C(C[C@@H]1C[C@H]2c3cc(NC(=O)Nc4ccccc4)ccc3O[C@H]2[C@H](CO)O1)NCc1ccccn1,22,13
C[C@H]1CN([C@@H](C)CO)C(=O)c2cc(NC(=O)Cc3cn(C)c4ccccc34)ccc2O[C@H]1CN(C)S(=O)(=O)c1ccccc1,-18,-4
C[C@@H]1CN([C@@H](C)CO)C(=O)Cc2cc(NS(=O)(=O)c3ccc(F)cc3)ccc2O[C@@H]1CN(C)C(=O)NC1CCCCC1,-2,-1
CCCC#Cc1ccc([C@H]2[C@@H](CO)N[C@@H]2CN(C(C)=O)C2CCCC2)cc1,-12,2
COc1ccc2c3c([nH]c2c1)[C@@H](CO)N(C(=O)C1CCCC1)CC31CCN(C(=O)NC(C)C)CC1,18,11
C[C@@H]1CCCCO[C@H](CN(C)C(=O)Nc2cccc3ccccc23)[C@@H](C)CN([C@@H](C)CO)C(=O)c2cc(NC(=O)c3ccccc3)ccc2O1,8,14
COc1ccc(C(=O)N2C[C@H]3[C@@H](c4ccccc42)[C@H](CO)N3C(=O)Cc2ccccn2)cc1,0,4
C[C@@H]1CN([C@@H](C)CO)C(=O)c2cccc(NC(=O)c3ccc(-c4nccs4)cc3)c2O[C@@H]1CN(C)C(=O)Nc1ccc2c(c1)OCO2,-12,-7
COc1ccc(CN(C)C[C@@H]2Oc3c(NC(=O)Nc4ccc(OC)cc4)cccc3C(=O)N([C@H](C)CO)C[C@@H]2C)cc1,13,10
COCC#Cc1ccc2c(c1)O[C@@H](CN(C)C)[C@H](C)CN([C@@H](C)CO)S2(=O)=O,3,7
C[C@@H]1CCCCO[C@@H](CN(C)C(=O)Nc2ccccc2)[C@H](C)CN([C@@H](C)CO)C(=O)c2cc(NC(=O)c3ccccc3)ccc2O1,-6,-15
O=C(C[C@H]1CC[C@H]2[C@@H](COC[C@H](O)CN2S(=O)(=O)c2cccc(F)c2)O1)NC1CCC1,22,16
C[C@@H]1CN([C@H](C)CO)C(=O)c2cc(NC(=O)Nc3ccccc3)ccc2O[C@@H](C)CCCCO[C@@H]1CN(C)S(=O)(=O)c1ccc(Cl)cc1,4,16
O=C(N[C@H]1CC[C@@H](CCNC(=O)C2CCOCC2)O[C@@H]1CO)c1ccncc1,-1,6
COc1ccccc1-c1cnc2c(c1)C(=O)N([C@H](C)CO)C[C@H](C)[C@@H](CN(C)Cc1cccc(F)c1)O2,-32,-18
C[C@@H]1CN([C@@H](C)CO)C(=O)Cc2cc(NC(=O)Nc3ccc(F)cc3)ccc2O[C@@H]1CN(C)CC1CCCCC1,-17,-8
# Further compounds follow.
SMILES,Vaccinia stage,Vaccinia stage Venus
C[C@H](CO)N1C[C@H](C)[C@@H](CN(C)CC2CCCC2)OCc2cn(nn2)CCCC1=O,6,1
CO[C@H]1CN(C)C(=O)c2cc(NS(=O)(=O)c3cccc(C)c3)ccc2OC[C@@H](C)NC[C@@H]1C,6,3
O=C(C1CC1)N1CC[C@@H]2[C@@H](CO)Nc3ccc(Br)cc3[C@@H]21,1,-6
C[C@H](CO)N1C[C@H](C)[C@H](CN(C)C(=O)Nc2ccnc(N3CCOCC3)c2)OCc2cn(nn2)CCCC1=O,17,15
Cc1ccc(S(=O)(=O)N(C)C[C@@H]2OCCCC[C@H](C)Oc3ccc(NS(=O)(=O)c4cn(C)cn4)cc3C(=O)N([C@H](C)CO)C[C@@H]2C)cc1,9,3
C[C@@H]1CN([C@H](C)CO)C(=O)c2cc(-c3ccc(C(=O)N(C)C)cc3)cnc2O[C@H]1CN(C)C(=O)c1ccncc1,5,-1
COc1ccc(CNC(=O)C[C@@H]2C=C[C@@H](NC(=O)Nc3ccc4c(c3)OCO4)[C@@H](CO)O2)cc1,0,0
COc1ccc(S(=O)(=O)Nc2ccc3c(c2)C(=O)N([C@@H](C)CO)C[C@@H](C)[C@H](CN(C)C(=O)CCCN(C)C)OCCCC[C@@H](C)O3)cc1,22,8
CC(=O)N1[C@@H]2Cn3c(ccc(-c4cccc(F)c4)c3=O)[C@H]1[C@@H](C(=O)NCC1CC1)[C@@H]2CO,7,2
Cc1noc(C)c1S(=O)(=O)Nc1ccc2c(c1)C(=O)N([C@@H](C)CO)C[C@@H](C)[C@@H](CN(C)C)OCCCC[C@H](C)O2,29,10
CNC[C@H]1Oc2cc(C#Cc3cccc(OC)c3)ccc2S(=O)(=O)N([C@@H](C)CO)C[C@@H]1C,-32,-21
CC(C)NC(=O)N1C[C@@H]2[C@H](c3ccccc31)[C@@H](CO)N2C(=O)C1CCCC1,16,8
O=C(C[C@H]1CC[C@@H]2[C@H](COC[C@@H](O)CN2C(=O)C2CCOCC2)O1)NCc1ccncc1,27,23
COc1ccc2c3c(n(C)c2c1)[C@H](CO)N(CC1CCCC1)CC31CCN(C(=O)Nc2ccccc2)CC1,-27,-29
COCC#Cc1cnc2c(c1)C(=O)N([C@@H](C)CO)C[C@H](C)[C@@H](CN(C)C(=O)C1CCCCC1)O2,4,10
CC(C)NC(=O)N(C)C[C@H]1Oc2c(NC(=O)c3nc4ccccc4s3)cccc2C(=O)N([C@H](C)CO)C[C@H]1C,5,-1
C[C@@H]1CN([C@@H](C)CO)C(=O)c2cccc(NC(=O)C3CCCCC3)c2O[C@H]1CN(C)Cc1ccc(Cl)c(Cl)c1,-9,-12
O=C(NC1CCC1)[C@H]1[C@H](CO)[C@H]2Cn3c(ccc(-c4ccc(F)cc4)c3=O)[C@H]2N1Cc1ccccn1,1,5
C[C@@H]1CN([C@@H](C)CO)C(=O)c2cccc(NC(=O)c3ccncc3)c2O[C@H]1CN(C)Cc1ccc(C(=O)O)cc1,5,-4
CC(C)[C@@H](C)NC(=O)N(C)C[C@H]1OCc2ccccc2-c2ccccc2C(=O)N([C@@H](C)CO)C[C@H]1C,27,8
COc1ccccc1S(=O)(=O)N(C)C[C@H]1OCc2cn(nn2)CCCC(=O)N([C@H](C)CO)C[C@H]1C,6,4
CO[C@@H]1CN(C)C(=O)c2ccc(NS(=O)(=O)c3ccccc3F)cc2OC[C@H](C)NC[C@H]1C,15,9
O=C(C[C@@H]1CC[C@H](NC(=O)c2cccc(F)c2)[C@@H](CO)O1)NCCN1CCCC1,-5,3
Cc1noc(C)c1NC(=O)N(C)C[C@@H]1OCCCC[C@@H](C)Oc2ccc(NC(=O)NC(C)C)cc2C(=O)N([C@H](C)CO)C[C@H]1C,0,2
Cc1noc(C)c1S(=O)(=O)Nc1cccc2c1O[C@@H](CN(C)S(=O)(=O)c1cn(C)cn1)[C@@H](C)CN([C@@H](C)CO)C2=O,11,9
C[C@H](CO)N1C[C@H](C)[C@@H](CN(C)Cc2ccncc2)Oc2ncc(-c3cncnc3)cc2C1=O,18,11
CNC[C@H]1Oc2ccc(NC(=O)c3ccncc3)cc2C(=O)N([C@H](C)CO)C[C@@H]1C,8,8

# Sorted by length of the SMILES (low to high): some entries from above
SMILES,Vaccinia stage,Vaccinia stage Venus
O=C(C1CC1)N1CC[C@@H]2[C@@H](CO)Nc3ccc(Br)cc3[C@@H]21,1,-6
CC(C)NC(=O)N1C[C@@H]2[C@H](c3ccccc31)[C@@H](CO)N2C(=O)C1CCCC1,16,8
CNC[C@H]1Oc2cc(C#Cc3cccc(OC)c3)ccc2S(=O)(=O)N([C@@H](C)CO)C[C@@H]1C,-32,-21
O=C(C[C@H]1CC[C@@H]2[C@H](COC[C@@H](O)CN2C(=O)C2CCOCC2)O1)NCc1ccncc1,27,23
COc1ccccc1S(=O)(=O)N(C)C[C@H]1OCc2cn(nn2)CCCC(=O)N([C@H](C)CO)C[C@H]1C,6,4
COc1ccc(CNC(=O)C[C@@H]2C=C[C@@H](NC(=O)Nc3ccc4c(c3)OCO4)[C@@H](CO)O2)cc1,0,0
COCC#Cc1cnc2c(c1)C(=O)N([C@@H](C)CO)C[C@H](C)[C@@H](CN(C)C(=O)C1CCCCC1)O2,4,10
CC(=O)N1[C@@H]2Cn3c(ccc(-c4cccc(F)c4)c3=O)[C@H]1[C@@H](C(=O)NCC1CC1)[C@@H]2CO,7,2
C[C@@H]1CN([C@@H](C)CO)C(=O)c2cccc(NC(=O)c3ccncc3)c2O[C@H]1CN(C)Cc1ccc(C(=O)O)cc1,5,-4
Cc1noc(C)c1S(=O)(=O)Nc1ccc2c(c1)C(=O)N([C@@H](C)CO)C[C@@H](C)[C@@H](CN(C)C)OCCCC[C@H](C)O2,29,10
Cc1noc(C)c1NC(=O)N(C)C[C@@H]1OCCCC[C@@H](C)Oc2ccc(NC(=O)NC(C)C)cc2C(=O)N([C@H](C)CO)C[C@H]1C,0,2
COc1ccc(S(=O)(=O)Nc2ccc3c(c2)C(=O)N([C@@H](C)CO)C[C@@H](C)[C@H](CN(C)C(=O)CCCN(C)C)OCCCC[C@@H](C)O3)cc1,22,8
